Assay outcomes from PubChem.
LASV entry inh: Lassa virus entry inhibition; Lassa virus pseudotype entry inhibition, cell reporter; control for the full effect not named in the record; Potency, µM (series often up to 37.9 µM), for inactives: top-dose activity change, negative = inhibition, usual class: inhibitors; actives 1.2% (n = 300,000); AID 540256; active means well fitted inhibition curve with a large enough effect; inconclusive means small, poorly fitted or top-dose-only effect, or effect the other way; inactive means flat fitted curve, though single readings scatter; tested in HEK293 cells; note: % is set by controls: 0 for no effect and ±100 for the full control effect; nearly all actives have a fitted effect of over 50% in size; luciferase read-out
RE007 growth inh: less growth of the S. pombe RE007 Vpr strain; actives 0.21% (n = 360,000); Potency, µM (top dose mostly 92.2 µM), for inactives: at the highest dose activity change, negative = less growth; S. pombe RE007 Vpr strain, BacTiter-Glo ATP luminescence, 24 h; control for the full effect not named in the record; AID 651644; active = well fitted falling curve with a large enough effect; inconclusive = small, poorly fitted or top-dose-only effect; inactive = no such curve, though single readings can be large or run the other way;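 note: % is set by controls: 0 for no effect and ±100 for the full control effect; nearly all actives have a fitted effect of over 50% in size; the assay follows cell death caused by Vpr and the record does not say whether a fall means rescue or toxicity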
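Fission yeast RE007 carrying one integrated HIV-1 vpr copy, seeded at OD 0.01 in PMG+AL medium with 23 nL pinned compound. Grown 24 h at 30 degrees; viability read by BacTiter-Glo luminescence after 5 min.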
NS1 inh: blocks influenza NS1 protein function | Potency, µM (doses to about 46.1 µM), inactives show at the highest dose activity, positive = more growth | S. cerevisiae slowed by influenza A NS1, growth recovery by OD600 | actives 0.4% (n = 270,000); active means well fitted rising curve with a large enough effect; inconclusive means small, poorly fitted or top-dose-only effect; inactive means no such curve, though single readings can be large or run the other way; note: nearly all actives have a fitted effect of over 50% in size
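Recovery from NS1-induced slow growth read by OD600 in budding yeast switched to galactose assay medium (pH 6.0, -URA) at 1:100 dilution. Compound 23 nl per well; the matching strain lacking NS1 serves as control.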
SARS PLP yeast: inhibitors of SARS-CoV papain-like protease in yeast. S. cerevisiae expressing SARS-CoV PLpro, growth rescue; control for the full effect not named in the record. Potency, µM (highest dose often 32.9 µM), for the others: at the highest dose activity, positive = growth rescue. actives 0.19% (n = 330,000). AID 485353; active means well fitted rising curve with a large enough effect; inconclusive means small, poorly fitted or top-dose-only effect; inactive means no such curve, though single readings can be large or run the other way; note: 0% is about no effect; nearly all actives have a fitted effect of over 55% in size; growth read by luminescence after 48 h
2A StopGo: FMDV 2A StopGo reporter, luciferase signal; Potency, µM (doses to about 57.9 µM), without a hit: top-dose signal change, negative = less light; actives 1.2% (n = 410,000); AID 1159524; human cells with a luciferase reporter of 2A StopGo recoding; control for the full effect not named in the record; active = well fitted falling curve with a large enough effect; inconclusive = small, poorly fitted or top-dose-only effect; inactive = no such curve, though single readings can be large or run the other way; tested in HEK293T cells; note: % is set by controls: 0 for no effect and ±100 for the full control effect; nearly all actives have a fitted effect of over 45% in size; luciferase light after 4 h
Marburg entry inh: blocks Marburg virus binding to or entry into cells; Marburg virus pseudotyped entry inhibition, cell reporter; control for the full effect not named in the record; about a third of the inactives were read at about 46 µM; actives 1.8% (n = 300,000); Potency, µM (titrated, usually from 37.8 µM), for inactives: top-dose activity change, negative = inhibition, usual class: inhibitors; active = well fitted inhibition curve with a large enough effect; inconclusive = small, poorly fitted or top-dose-only effect, or effect the other way; inactive = flat fitted curve, though single readings scatter; tested in HEK293 cells; about a fifth of its hits are not listed in these tables; note: % is set by controls: 0 for no effect and ±100 for the full control effect; luciferase read-out
Cruzain inh noDet: inhibitors of Trypanosoma cruzi cruzain without detergent; P25779; purified cruzain, Z-FR-AMC fluorescence, no detergent; Potency, µM, for inactives: max response, negative = inhibition, hits mostly inhibitors; actives 2.3% (n = 200,000); AID 1476;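 note: plate controls were enzyme without inhibitor for no effect and buffer without enzyme for full effect; nearly all actives have a fitted effect of over 40% in size; top concentration of the series not given in the record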
Target sequence (P25779 123-467 limits assumed): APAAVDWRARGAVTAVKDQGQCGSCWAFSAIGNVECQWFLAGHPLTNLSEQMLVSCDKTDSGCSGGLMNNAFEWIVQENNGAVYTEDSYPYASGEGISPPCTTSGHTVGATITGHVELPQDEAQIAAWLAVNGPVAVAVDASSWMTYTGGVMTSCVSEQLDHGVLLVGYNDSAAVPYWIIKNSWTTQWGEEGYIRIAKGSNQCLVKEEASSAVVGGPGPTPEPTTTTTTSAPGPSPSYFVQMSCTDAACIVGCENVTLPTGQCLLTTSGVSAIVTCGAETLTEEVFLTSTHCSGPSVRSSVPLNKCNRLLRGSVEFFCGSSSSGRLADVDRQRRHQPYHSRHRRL
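Purified cruzain at 1.5 nM, pre-incubated 15 min with compound at room temperature in 100 mM sodium acetate pH 5.5, 5 mM DTT, 0.00005% Triton X-100. Reaction started with 2 uM Z-FR-AMC; AMC fluorescence increase over 60 s gives rate.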
Cruzain inh Det: inhibitors of Trypanosoma cruzi cruzain with detergent. actives 0.43% (n = 200,000). Potency, µM, for inactives: max response, negative = inhibition, actives largely listed as inhibitors. purified cruzain, Z-FR-AMC fluorescence, 0.01% Triton. P25779;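 note: plate controls were neutral wells for no effect and buffer without enzyme for full effect; nearly all actives have a fitted effect of over 40% in size; top concentration of the series not given in the record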
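Detergent-containing arm of a paired screen for aggregation-based inhibition: 0.01% Triton X-100 present. Cruzain at 1.5 nM cleaved 2 uM Z-FR-AMC at pH 5.5 with 5 mM DTT; AMC fluorescence gain over 60 s measured activity.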
The depositor's hits bear a star; ? = inconclusive; · = no result given; [ ] = dose if it differs, or a comment. Unless noted, calls come from the whole dose curve; as a rule, active = well fitted curve in the direction sought with a large enough effect; inconclusive = small, poorly fitted or top-dose-only effect, or another doubt; inactive = no such curve, though single readings can be large; an effect the other way counts as inactive or inconclusive. Potency is the fitted concentration of half-maximal effect.

mol	Cruzain inh Det	SARS PLP yeast	Marburg entry inh	NS1 inh	Cruzain inh noDet	LASV entry inh	RE007 growth inh	2A StopGo
Cc1ccc2nc(N(Cc3cccnc3)C(=O)C3CCCCC3)sc2c1	-3.7%	·	·	·	1%	9%[46.1 µM]	·	0%
Cc1c(CCNC(=O)Cc2ccccc2)sc2nc(-c3ccc(F)cc3)nn12	-3.0%	·	·	·	-1%	5%[46.1 µM]	·	8%
CC(C)c1ccc(NC(=O)CSc2nnc(-c3ccccn3)n2C)cc1	3.8%	1%	6%	-9%	-2%	5%	28%	-2%
COc1ccc(/C=C2\CCC(C3CCCC3)C2=O)cc1Cn1cccn1 (centres undefined)	-4.1%	-4%	?	4%	-4%	-10%	-8%	9%
COc1ccccc1NS(=O)(=O)c1cccc(NC(=O)c2ccc3ccccc3n2)c1	-3.8%	17%	?	28%	?	?	3%	16%
COc1ccc(-c2nc(-c3ccccn3)ncc2S(C)(=O)=O)cc1	·	-2%	3%[46.1 µM]	·	·	-12%	-6%	-5%
Cc1nn(Cc2c(F)cccc2Cl)c(=O)c2ccccc12	·	3%	-21%[46.1 µM]	-30%	·	5%	?	22%
COC(=O)c1ccc(S(=O)(=O)N2CCCCC2)o1	5.6%	-6%	1%	-1%	-1%	-18%	0%	-14%
CCOC(=O)c1ccc(NC(=O)CCc2ccc(CC)o2)cc1	-7.5%	-27%	-9%	-81%	2%	-13%	0%	-9%
CN(C)/C=C1\C=C2C(=O)c3ccccc3N2C1=O	·	0%	·	-2%	·	·	0%	33%[activator]
CC(C)COc1ccc(S(=O)(=O)n2cc(F)c(=O)[nH]c2=O)cc1	·	-4%	-3%[46.1 µM]	-4%	·	-26%	?	0%
CC1(C)N=C(C(=O)c2ccccc2)N(O)C1(C)O (centres undefined)	4.1%	1%	1%	5%	-7%	19%	10%	·
Fc1ccc(C(OCCN2CCCC2)c2ccc(Br)cc2)cc1 (centres undefined)	0.1%	-9%	?	-30%	-7%	?	-3%	-8%
O=c1cc(C(F)(F)F)nc(-c2ccccc2)[nH]1	-4.2%	2%	9%	-56%	2%	7%	3%	6%
CN1CCN(C(=O)C2(NC(=O)Nc3ccccc3Cl)CCCCC2)CC1	2.4%	6%	13%	3%	5%	-3%	9%	-27%
N#CC(=C1Nc2ccccc2N1)S(=O)(=O)c1ccccc1	·	1%	-4%[14.2 µM]	6%	·	1%	-3%	-5%
CCC(=O)Nc1ccc(-c2nnc3c4ccccc4c(C)nn23)cc1	-1.0%	·	3%[46.1 µM]	·	5%	?	·	11%
Cc1cc(=O)oc2cc(OCC(=O)OCC(=O)N(CCC#N)c3ccccc3)ccc12	·	-1%	0%[46.1 µM]	·	·	16%[46.1 µM]	-5%	6%
COc1cc(-c2nc(Cn3nnc(C(=O)Nc4ccc(C)cc4C)c3C)c(C)o2)cc(OC)c1OC	-2.8%	·	2%[46.1 µM]	·	7%	-7%[46.1 µM]	·	?
CC(C)[C@H](NC(=O)[C@H](CC(=O)O)NC(=O)[C@H](CCCCN)NC(=O)[C@@H](N)CCCN=C(N)N)C(=O)N[C@@H](Cc1ccc(O)cc1)C(=O)O	1.4%	6%	-2%	0%	1%	6%	·	·
Cc1ccc(CN(c2ccc(C(=O)N3CCOCC3)cc2)S(C)(=O)=O)cc1	-2.2%	-4%	13%	-11%	26%	17%	4%	0%
O=C(CSC(=S)N1CCOCC1)c1cc(Br)cc(Br)c1O	·	0%	11%[46.1 µM]	0%	·	4%	-6%	-7%
COc1cc(NC(=O)c2cnn3c(C)cc(C)nc23)c(OC)cc1Cl	-3.5%	-2%	6%	0%	?	?	-5%	-17%
O=S(=O)(c1ccc(-c2ccon2)s1)N1CCN(c2ccncc2)CC1	·	4%	1%[46.1 µM]	?	·	6%	14%	3%
CC(=O)c1nc2ccccc2n1CCc1ccccc1	·	0%	·	-14%	·	·	-1%	-29%
CCC1CCCCN1C(=O)CSc1nc(-c2ccc(OC)cc2)cc(C(F)(F)F)n1 (centres undefined)	-12%	·	-18%[46.1 µM]	·	21%	3%[46.1 µM]	·	?
COc1ccc(-c2nn(-c3ccccc3)cc2C(=O)N(C)C)cc1	·	0%	·	-2%	·	·	6%	-20%
NCC(O)(CS(=O)(=O)O)c1ccc(Cl)cc1 (centres undefined)	4.5%	·	?	-4%	-11%	3%	·	·
Cc1cc(C)c(NS(=O)(=O)c2ccc(Cl)c(C(=O)O)c2)c(C)c1	1.7%	5%	5%	7%	-1%	7%	6%	9%
COc1ccccc1C1=NOC(C(=O)N2CCN(C(=O)c3ccco3)CC2)C1 (centres undefined)	·	2%	·	-1%	·	·	16%	-1%
N#Cc1c(N)nc(SCC(=O)NC2CCCCC2)c(C#N)c1-c1ccc(Cl)cc1	-2.7%	-4%	?	-5%	16µM*	-4%	0%	21%
CCc1ccc(OCC(=O)NCCOc2ccccc2)cc1	-0.2%	1%	11%	-94%	17%	1%	-11%	50%[activator]
Cn1c2ccccc2c2nnc(SCc3ccc4nonc4c3)nc21	-3.6%	0%	-26%	-5%	?	0%	12%	0%
COc1ccc(NS(=O)(=O)c2c(C)[nH]c(=O)[nH]c2=O)c(OC)c1	4.3%	4%	20%	?	-17%	-11%	5%	9%
Cc1ccc(NC=C(S(=O)(=O)c2ccccc2)S(=O)(=O)c2ccccc2)c(C)c1	-3.9%	4%	-10%	14%	?	-23%	2%	20%
COc1ccc2nc(Cl)c(C3CC(c4ccco4)=NN3C(=O)CCCC(=O)O)cc2c1 (centres undefined)	·	0%	-2%[46.1 µM]	6%	·	0%	-8%	3%
Cc1ccn2c(Nc3ccc4c(c3)OCCO4)c(-c3ccccc3O)nc2c1	-13%	·	5%[46.1 µM]	·	-4%	-7%[46.1 µM]	·	19%
CC(=O)Nc1ccc(S(=O)(=O)Nc2nc3ccccc3nc2Nc2ccc(S(N)(=O)=O)cc2)cc1	-13%	-1%	0%	-4%	?	11%	4%	4%
O=c1[nH]c(C(F)(F)F)nc2ccc3ccccc3c12	·	0%	?	-49%	·	?	-17%	-4%
Cc1cc(C)c(S(=O)(=O)N/N=C/c2ccc([N+](=O)[O-])o2)c(C)c1	·	-6%	14%[46.1 µM]	-38%	·	12%[46.1 µM]	-26%	-17%
CCC(C)NC(=O)CSc1c2c(nc3cc(Cl)ccc13)CCCC2 (centres undefined)	-2.2%	·	-6%[46.1 µM]	·	1%	·	·	?
COc1ccc2oc(C(=O)NC(C)(C)C)c(C)c2c1	·	4%	10%[46.1 µM]	·	·	0%[46.1 µM]	-7%	34%[activator]
Cn1nnnc1SCC(=O)NC(=O)Cc1ccccc1	1.5%	-9%	5%	-5%	17%	21%	-22%	-6%
COC(=O)C(NC(=O)c1ccc(Cl)cc1)(Nc1nc(C)cs1)C(F)(F)F (centres undefined)	1.0%	5%	-12%	12%	-13%	-26%	-3%	-16%
O=C1CN(O)C=C2N=c3ccccc3=C2N1c1ccc([N+](=O)[O-])cc1	·	1%	·	12%	·	·	12%	-1%
CCOC(=O)CSc1nnc(-c2ccoc2C)n1-c1ccc(C)cc1	-2.4%	3%	28%	-8%	11%	7%	9%	5%
Cc1ccc(NC(=O)c2cccnc2)cc1S(=O)(=O)N1CCOCC1	·	-11%	8%	·	·	-3%	0%	-16%
O=C(CCc1ccccc1)Oc1ccccc1[N+](=O)[O-]	·	·	?	·	·	24%[46.1 µM]	?	-2%
O=C(NCCN1C(=O)CCC1=O)c1ccncc1	5.8%	5%	0%[46.1 µM]	2%	5%	28%	10%	-1%
CCCc1cc(=O)oc2cc(OCC(=O)N3CCC(C(=O)O)(c4ccccc4)CC3)ccc12	·	0%	·	11µM*	·	·	14%	-22%

Next part:
mol	Cruzain inh Det	SARS PLP yeast	Marburg entry inh	NS1 inh	Cruzain inh noDet	LASV entry inh	RE007 growth inh	2A StopGo
CCN1CCN(c2ncnc3c2sc(=S)n3-c2ccccc2)CC1	-5.1%	6%	1%	?	-5%	0%	-1%	-23%
CN(c1ccccc1)S(=O)(=O)c1ccc(C(=O)NCc2ccccc2CN2CCCC2)cc1	·	3%	?	·	·	12%	-11%	?
COc1cccc(-c2ccc(NC(=O)C3CCCN(Cc4cnc(C)s4)C3)cc2)c1 (centres undefined)	·	-2%	?	-12%	·	?	-29%	?
CC1CCN(CC(=O)Nc2nccs2)CC1	·	-6%	1%[46.1 µM]	7%	·	?	6%	-4%
O=C(NC1CCCCCCC1)C1CCCN(S(=O)(=O)c2cnc[nH]2)C1 (centres undefined)	1.5%	1%	·	3%	-7%	·	-2%	-9%
Cc1ccc(C(=O)N2CCc3cc(CNC(=O)c4ccc(Br)cc4)ccc32)cc1	-1.0%	·	·	·	?	-5%[46.1 µM]	·	?
CC(C)C(=O)N1CCN(c2ccccc2NC(=O)c2ccco2)CC1	·	0%	-4%[46.1 µM]	-2%	·	?	3%	-19%
Cc1cc(C)nc(SCC(=O)N/N=C/c2cc(C)n(-c3ccccc3C)c2C)n1	-7.6%	-26%	-1%	10%	-5%	?	7%	?
Cc1[nH]c2ccccc2c1C(c1ccncc1)N1CCCCC1 (centres undefined)	·	5%	?	·	·	?	13%	-13%
CN(CC(=O)NCC(c1ccco1)N1CCCCC1)S(=O)(=O)c1ccc(Cl)cc1 (centres undefined)	·	6%	-26%	·	·	13%	-26%	-9%
CCCNC(=O)c1cnc(-c2ccccc2)nc1-c1ccccc1	·	-1%	-16%[46.1 µM]	-1%	·	4%[46.1 µM]	-7%	-3%
CCOc1ccc(CCNC(=O)C2CCN(c3nnc(-n4cccc4)s3)CC2)cc1OCC	-5.4%	-8%	?	9%	14%	?	8%	-19%
